# Source: PubChem
# PINK1 expr mod: modulators of PINK1 expression | PINK1 immunofluorescence, high-content cytometry, 24 h | AID 624263 | Potency, µM (top dose mostly 76.6 µM), inactives show at the highest dose activation (PINK1 increase), actives largely listed as activators | 410,000 tested, 0.2% active; active = well fitted activation curve with a large enough effect; inconclusive = small, poorly fitted or top-dose-only effect; inactive = flat fitted curve, though single readings scatter; cell line not stated here;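 further: % of control where 0% means no effect; nearly all actives have a fitted effect of over 65% in size; a mitochondrial uncoupler was the plate control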
#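 Fluorescence from anti-PINK1 antibody, together with nuclear and cell stains, was scanned on a laser-scanning cytometer. Before staining, stable-line cells were incubated 24 hours with compounds at 5 concentrations; primary antibody 12 h at 10 degrees C.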
# * marks the source's active call; other numbers are inactive results; ? = inconclusive. Potency means the concentration at half of the fitted maximal effect. Only part of the results is shown, so the mix of outcomes need not match the whole.
PINK1 expr mod	smiles
-0.6%	O=C(/C=C/C(=O)Oc1ccccc1C(=O)O)Oc1ccccc1C(=O)O
2.5%	CCC(=O)NC(c1ccc(C)cc1)c1cc(Cl)c2cccnc2c1O (stereo not drawn)
-0.3%	CCC1CN(CCNC(=O)c2ccccc2-n2cccn2)Cc2cc(OC)ccc2O1 (stereo not drawn)
-1.8%	COc1cccc(-c2nccc(NC3CCNCC3)n2)c1
-0.7%	O=C(Nc1ccccc1)N1CCC2(CCNCC2)CC1
2.7%	Cc1ncc2c(c1CNC(=O)/C=C/c1cccs1)CCN(C(=O)c1ccc3c(c1)OCCO3)C2
1.5%	COc1cc(=O)n2c(c1C(=O)N(C)Cc1nccs1)CCN(Cc1cccc(F)c1F)CC2
-1.2%	Cn1cccc1C(=O)N1CCC2(CCCN(c3ccccn3)C2)CC1
0.6%	COc1ccc(CCNC(=O)c2cnn(-c3nccc(-c4cccs4)n3)c2C)cc1OC
0.9%	COc1ccc(OC)c(CN2CCCC(n3cc(C(=O)N4CCCCC4)nn3)C2)c1 (stereo not drawn)
0.9%	Oc1cccc2c(-c3nn[nH]n3)ccnc12
-0.1%	COc1ccccc1-c1cncnc1NCc1cnc(C)cn1
-1.0%	COc1ccc2[nH]cc(CCNc3ncncc3-c3ccoc3)c2c1
0.2%	N#Cc1ccc(CN2CC3(CCN(C(=O)c4csnn4)CC3)C2)cc1
-1.0%	O=S(=O)(c1ccc2c(c1)OCCO2)N1CCN(S(=O)(=O)c2ccccn2)CC1
-1.4%	c1cncc(CNc2ncncc2-c2ccc3c(c2)OCO3)c1
2.1%	COc1ccc(C2(C(=O)NCC3Cc4cccc(-c5nc(C)cnc5C)c4O3)CCCC2)cc1 (stereo not drawn)
-0.7%	Cc1cc(C)cc(CN2CCOc3ccc(CN4CCC(O)(c5cccnc5)CC4)cc3C2)c1
-0.9%	N#Cc1cccc(NC(=O)N2CC[C@@]3(CCCN(S(=O)(=O)c4ccccc4)C3)C2)c1
-0.1%	COC(=O)N1CCC[C@@]2(CCN(C(=O)Nc3ccccc3)C2)C1
0.3%	N#CCCn1c(=O)c(-c2ccc(F)cc2)nc2cnc(N3CCNCC3)nc21
0.2%	CCNc1ncc2nc(C)c(=O)n(C)c2n1
2.2%	COc1ccc(NC(=O)N2CC3(CCN(C(=O)c4cc(C(F)(F)F)cc(C(F)(F)F)c4)CC3)C2)cc1
0.7%	N#Cc1ccc(-c2ccc(C3Nc4ccccc4C(=O)N3O)o2)cc1 (stereo not drawn)
0.4%	Cc1noc(C)c1C(=O)N1CCC2(CCCN(Cc3ccc(C#N)cc3)C2)CC1

# Reprinted from the listing (16 entries):
PINK1 expr mod	smiles
-0.7%	O=C(Nc1ccccc1)N1CCC2(CCNCC2)CC1
2.7%	Cc1ncc2c(c1CNC(=O)/C=C/c1cccs1)CCN(C(=O)c1ccc3c(c1)OCCO3)C2
1.5%	COc1cc(=O)n2c(c1C(=O)N(C)Cc1nccs1)CCN(Cc1cccc(F)c1F)CC2
-1.2%	Cn1cccc1C(=O)N1CCC2(CCCN(c3ccccn3)C2)CC1
0.6%	COc1ccc(CCNC(=O)c2cnn(-c3nccc(-c4cccs4)n3)c2C)cc1OC
0.9%	COc1ccc(OC)c(CN2CCCC(n3cc(C(=O)N4CCCCC4)nn3)C2)c1 (stereo not drawn)
0.9%	Oc1cccc2c(-c3nn[nH]n3)ccnc12
-0.1%	COc1ccccc1-c1cncnc1NCc1cnc(C)cn1
-1.0%	COc1ccc2[nH]cc(CCNc3ncncc3-c3ccoc3)c2c1
0.2%	N#Cc1ccc(CN2CC3(CCN(C(=O)c4csnn4)CC3)C2)cc1
-1.0%	O=S(=O)(c1ccc2c(c1)OCCO2)N1CCN(S(=O)(=O)c2ccccn2)CC1
-1.4%	c1cncc(CNc2ncncc2-c2ccc3c(c2)OCO3)c1
2.1%	COc1ccc(C2(C(=O)NCC3Cc4cccc(-c5nc(C)cnc5C)c4O3)CCCC2)cc1 (stereo not drawn)
-0.7%	Cc1cc(C)cc(CN2CCOc3ccc(CN4CCC(O)(c5cccnc5)CC4)cc3C2)c1
-0.9%	N#Cc1cccc(NC(=O)N2CC[C@@]3(CCCN(S(=O)(=O)c4ccccc4)C3)C2)c1
-0.1%	COC(=O)N1CCC[C@@]2(CCN(C(=O)Nc3ccccc3)C2)C1

# New compounds follow:
PINK1 expr mod	smiles
0.5%	COc1cccc(-c2cc(NCc3ccccc3OC)ncn2)c1
1.9%	Cc1ccc(Nc2nc(NCCO)nc(N3CCCC3)n2)cc1
0.1%	CC(O)(COc1ccccc1)c1ccc2c(c1)CN(Cc1cccnc1)CCO2 (stereo not drawn)
2.3%	COc1ccc(-c2nc3cnc(N4CCNCC4)nc3n(C3CC3)c2=O)cc1
0.7%	COc1ccc(CNc2cc(-c3cccc(NS(C)(=O)=O)c3)ncn2)c(OC)c1
2.0%	Cn1c(=O)c(-c2cc(F)cc(F)c2)nc2cnc(N3CCOCC3)nc21
0.7%	c1ccc(Nc2cc(-c3ccoc3)ncn2)cc1
0.2%	COc1cc(=O)n2c(c1C(=O)N(C)Cc1nonc1C)CCN(C(=O)c1cc(C)cc(C)c1)CC2
0.6%	CN(C)C(=O)c1ccc(-c2cncnc2-n2ccnc2)cc1
-1.0%	O=C(Cn1nc2ccccc2n1)N1CCOc2ccc(CN3CCc4sccc4C3)cc2C1
2.2%	COc1cccc(-c2cc(NCCc3c[nH]c4ccc(OC)cc34)ncn2)c1
-0.7%	CC(C)(CNC(=O)c1cnn(-c2ncc3c(n2)-c2ccccc2CC3)c1C1CC1)N1CCOCC1
4.0%	Cn1c(=O)c(-c2ccc(Cl)cc2)nc2cnc(OCc3ccccc3)nc21
0.8%	Cc1ccccc1-c1ccc2ncnc(N3CCN(C)CC3)c2c1
-0.3%	Cc1cccc2c(N3CCCC3)nc(CNS(=O)(=O)c3ccccc3Cl)nc12
1.8%	Cc1noc(C)c1-c1csc(N2CCC(C(N)=O)CC2)n1
-0.6%	O=C(Nc1cccc(F)c1)N1CC2(CCN(C(=O)c3ccco3)CC2)C1
12.8%	Cn1c(=O)c(-c2ccccc2)nc2cnc(Nc3ccccc3)nc21
?	COc1ncc2ncc(=O)n(C[C@H]3CCCO3)c2n1
1.8%	CSc1ccccc1C(=O)NCC1Cc2cc(F)cc(-c3cnccn3)c2O1 (stereo not drawn)
-0.3%	COc1ncc2nc(CCc3ccccc3)c(=O)n(C3CC3)c2n1
?	COc1cccc(Nc2ncc3nc(CCc4ccccc4)c(=O)n(CCC#N)c3n2)c1
0.1%	C[C@@H]1CN(Cc2ccc3c(c2)CN(C(=O)CCc2nc4ccc(F)cc4[nH]2)CCO3)C[C@H](C)O1
2.3%	Cc1c(C(=O)N2CC[C@@H]3CCCC[C@H]3C2)sc2ncnc(NCCc3ccccn3)c12
3.3%	Cc1cnc(CNc2ncnc3ccc(-c4ccccc4CN(C)C)cc23)cn1

# Next results.
PINK1 expr mod	smiles
-1.2%	O=C(c1csnn1)N1CCC2(CC1)CN(c1cccc(-c3ccccc3)c1)C2
0.7%	COc1ccc(-c2ccc(C(=O)NCC3Cc4cccc(-c5nc(C)cnc5C)c4O3)o2)cc1 (stereo not drawn)
-1.3%	CN1CCN(c2ncc3ncc(=O)n(-c4ccccc4)c3n2)CC1
-1.1%	COC(=O)[C@@H]1C[C@H](NC(=O)c2ccccn2)CN1Cc1cccc2ccccc12
0.0%	c1csc(CNc2ccnc(-c3ccc4c(c3)OCO4)n2)c1
-0.8%	COc1ccccc1-c1cc(N(C)Cc2ccco2)ncn1
-0.3%	COCC(=O)N1CCC2(CCN(Cc3ccccc3OC)CC2)CC1
1.0%	COc1ccc2c(c1)OC(C)CN(CCC(=O)NCC1OCCc3ccccc31)C2 (stereo not drawn)
?	COc1cccc(Nc2ncc3nc(-c4cc(F)cc(F)c4)c(=O)n(C[C@H]4CCCO4)c3n2)c1
-1.1%	COc1ccc(NC(=O)N2CCC3(CC2)CCN(S(=O)(=O)c2ccccc2)CC3)cc1
0.7%	COCc1c(C(=O)NC2CCCC2)cnn1-c1nccc(-c2cc(C)sc2C)n1
0.3%	CC(C)(CNC(=O)c1cnn(-c2nccc(-c3ccccc3F)n2)c1C1CC1)N1CCOCC1
1.1%	CSc1ccccc1C(=O)NCc1nc(-c2cccc(NC(=O)c3ccoc3C)c2)oc1C
-0.3%	OC1(c2ccc3c(c2)CN(Cc2nccs2)CCO3)CCN(c2ccccc2F)CC1
-0.6%	Oc1cc(NCCc2cccnc2)cc2cccnc12
-0.5%	COCCn1c(=O)c(-c2ccccc2)nc2cnc(N3CCNCC3)nc21
-0.4%	CN(CCO)C(=O)c1cn(C2CCCN(Cc3cc4ccccc4s3)C2)nn1 (stereo not drawn)
2.3%	Cc1cccc(CNc2cc(-c3cccc(NS(C)(=O)=O)c3)ncn2)c1
1.5%	COc1cccc(Cn2c(=O)c(CCc3ccccc3)nc3cnc(OC)nc32)c1
0.8%	COc1ccc(OC)c(-c2ccnc(-n3ncc(C(=O)NC(C)(C)CO)c3C3CC3)n2)c1
-0.3%	CC(C)CN1CCCC2(CCN(C(=O)c3csnn3)CC2)C1
-0.3%	COc1cccc(-c2cc(NCc3ccccc3)ncn2)c1
-0.1%	COc1ccc(C(=O)N2CCC3(CCCN(C(=O)Nc4cccc(C#N)c4)C3)CC2)cc1
0.3%	CC(C)c1nc2cccnc2n1C1CCN(C(=O)Cn2cccn2)CC1
1.4%	Cc1cccc(C(=O)NCc2nc(-c3ccccc3NC(=O)C3CCCO3)oc2C)c1 (stereo not drawn)

# Next results.
PINK1 expr mod	smiles
-1.5%	COc1ncc2nc(-c3ccccc3)c(=O)n(C)c2n1
3.0%	CN(C)c1ncnc2ccc(-c3ccc4c(c3)OCO4)cc12
0.5%	COC(=O)[C@@H]1CCCN1Cc1ccc2c(c1)CN(Cc1cccn1-c1ccccn1)CCO2
0.0%	COc1ccc(C(=O)NCCN2Cc3ccccc3OC(c3ccsc3)C2)c(OC)n1 (stereo not drawn)
1.4%	CN(CCO)C(=O)c1cn(C2CCCN(Cc3cccc4ccccc34)C2)nn1 (stereo not drawn)
0.5%	CN(C)c1nc(-c2ccoc2)nc2ccccc12
5.3%	COCC1CCCN(Cc2ccc3c(c2)CN(C(=O)c2cc(-c4ccccc4)n[nH]2)CCO3)C1 (stereo not drawn)
1.2%	COc1cccc(CNC(=O)c2cnn(-c3ncc4c(n3)-c3ccccc3CCC4)c2C)c1OC
-1.1%	COc1ncc2nc(CCc3ccccc3)c(=O)n(CCC#N)c2n1
1.1%	Cc1nc2ccccc2nc1CN1CCOc2ccc(C3(O)CCN(c4ccccc4F)CC3)cc2C1
1.2%	O=c1c(-c2ccccc2)nc2cncnc2n1C1CC1
-0.2%	COCCn1c(=O)c(-c2cc(F)cc(F)c2)nc2cncnc21
-0.9%	O=C(c1cnccn1)N1CCC2(CC1)CN(c1cccc(-c3ccccc3)c1)C2
0.5%	Cc1c(C(=O)NCC2(N3CCCCC3)CCCC2)cnn1-c1nccc(-c2ccccc2F)n1
-0.7%	COc1ccc(CN2CCCC(c3nc(-c4ccncc4)ncc3-c3ccccc3)C2)cc1OC (stereo not drawn)
-1.0%	CN(C)CC(C)(O)c1ccc2c(c1)CN(Cc1cccn1-c1ncccn1)CCO2 (stereo not drawn)
-0.2%	Cc1ccc(CNc2ncnc3ccc(-c4ccoc4C)cc23)o1
0.6%	Cc1ccc(C)c(S(=O)(=O)NCc2nc(N3CCCC3)c3cc(Cl)ccc3n2)c1
4.1%	Oc1cc(-c2nc3ccccc3s2)cc2c1OCCN(Cc1cccn1-c1ncccn1)C2
0.1%	Cc1oc(-c2cccc(NC(=O)c3ccccn3)c2)nc1CNC(=O)C#Cc1ccccc1
-0.3%	O=c1cnc2cnc(Oc3cccc(Cl)c3)nc2n1C[C@H]1CCCO1
0.1%	CSc1ccc(CN2CCOc3ccc(CN4CCCCC4CO)cc3C2)cc1 (stereo not drawn)
0.4%	COc1ccc(CN2CCC3(CC2)c2ccccc2[C@@H](NC(=O)c2ccccc2)[C@@H]3O)cc1O
0.0%	CSc1nccc(-c2cc(Cl)c3c(c2)CC(CNC(=O)c2nonc2C)O3)n1 (stereo not drawn)
3.1%	CC(=O)NCCNc1nc(-c2ccccc2CN(C)C)nc2ccccc12

# Following part:
PINK1 expr mod	smiles
-1.0%	COc1ccc(C(=O)N2CCC3(CC2)CN(c2ccncc2)C3)cc1
0.4%	Cc1ncc2c(c1CNS(=O)(=O)N(C)C)CCN(C(=O)/C=C/c1ccccc1F)C2
-0.3%	CC(=O)c1ccccc1-c1ccc2c(c1)CC(CNC(=O)C[C@@H]1C[C@@H](C)NC(=S)N1)O2 (stereo partly drawn)
-1.1%	Cc1c(C(=O)NCc2ccco2)cnn1-c1ncc2c(n1)-c1ccccc1CC2
-0.2%	CN(C)Cc1ccccc1-c1cncnc1Nc1ccc(F)cc1
-0.1%	O=C(c1ccncc1)N1CCC2(CCCN(Cc3ccccc3)C2)CC1
-0.3%	c1cncc(OC2CCN(Cc3ccc4c(c3)CN(Cc3ccc5c(c3)CCO5)CCO4)CC2)c1
-0.7%	Cc1cccc(CNc2ncncc2-c2cccnc2)c1
1.1%	COc1ccc(-c2nc3cnc(N(C)C)nc3n(C[C@H]3CCCO3)c2=O)cc1
0.1%	CC(C)NC(=O)N1CC2(CCN(C(=O)c3ccco3)CC2)C1
-1.0%	COCC(=O)N1CCC2(CC1)CCN(c1ncccn1)CC2
9.5%	CC1(C)CCc2cc(S(=O)(=O)N3CCN(S(=O)(=O)c4c(F)cccc4F)CC3)ccc2O1
1.9%	CN(Cc1ccco1)c1nc(-c2ccccc2C(F)(F)F)nc2ccccc12
-0.3%	C[C@@H]1CN(S(=O)(=O)c2ccc3c(c2)OCCO3)CCN1S(=O)(=O)c1c(F)cccc1F
5.0%	O=c1c(-c2ccc(Cl)cc2)nc2cnc(N3CCNCC3)nc2n1Cc1cccs1
0.0%	CCNC(=O)CCC(N)C(=O)O (stereo not drawn)
0.9%	COc1cc(/C=C2/N=C(c3ccccc3)OC2=O)c(F)cc1OCc1ccccc1
-0.1%	c1cncc(-c2cncnc2-n2ccnc2)c1
